ClpP mod: qHTS Assay for Activators of ClpP; actives 1.9% (n = 340,000); ATP-dependent Clp protease proteolytic subunit (Bacillus subtilis (strain 168)), P80244; purified B. subtilis ClpP, FRET peptide cleavage, 20 min; Potency, µM (series often up to 57.5 µM), for the others: top-dose activity change, negative = active; AID 651965, 2013; active = well fitted falling curve with a large enough effect; inconclusive = small, poorly fitted or top-dose-only effect; inactive = no such curve, though single readings can be large or run the other way; note: potency is the fitted concentration of half-maximal effect; the source files actives as falling curves though it sought activators and does not explain the sign; nearly all actives have a fitted effect of over 65% in size; many hits overshoot -100%
Target sequence (P80244 whole entry, looked up): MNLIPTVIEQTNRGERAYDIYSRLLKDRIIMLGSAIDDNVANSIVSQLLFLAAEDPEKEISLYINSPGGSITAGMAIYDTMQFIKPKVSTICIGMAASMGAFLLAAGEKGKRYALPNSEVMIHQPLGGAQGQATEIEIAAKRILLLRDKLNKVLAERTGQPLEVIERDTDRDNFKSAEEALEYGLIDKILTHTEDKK
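Purified B. subtilis ClpP, 10 microg/mL final in Tris/HCl pH8 with KCl, BSA, glycerol and Tween-20, cleaved an Abz/nitrotyrosine-quenched decapeptide. Fluorescence (ex 320, em 430) was read at 0 and 20 min at room temperature. Delta was normalized to 5.8 microM ADEP and DMSO/no-enzyme controls.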
D2 ag: Beta-Arrestin HTS for Positive Allosteric Modulators of the Human D2 Dopamine Receptor: Agonists; actives 0.084% (n = 360,000); DiscoveRx PathHunter D2 beta-arrestin, luminescence, 90 min; 100% = 57 uM dopamine signal; activation, % (no concentration beside the values); D(2) dopamine receptor (Homo sapiens), P14416; in the data active = activation above about 40%; inconclusive = about 15% to 40%; inactive = below about 15%; note: compound concentration not given in the record; the text of the record calls up to 30% inactive
Target sequence (P14416 whole entry, looked up): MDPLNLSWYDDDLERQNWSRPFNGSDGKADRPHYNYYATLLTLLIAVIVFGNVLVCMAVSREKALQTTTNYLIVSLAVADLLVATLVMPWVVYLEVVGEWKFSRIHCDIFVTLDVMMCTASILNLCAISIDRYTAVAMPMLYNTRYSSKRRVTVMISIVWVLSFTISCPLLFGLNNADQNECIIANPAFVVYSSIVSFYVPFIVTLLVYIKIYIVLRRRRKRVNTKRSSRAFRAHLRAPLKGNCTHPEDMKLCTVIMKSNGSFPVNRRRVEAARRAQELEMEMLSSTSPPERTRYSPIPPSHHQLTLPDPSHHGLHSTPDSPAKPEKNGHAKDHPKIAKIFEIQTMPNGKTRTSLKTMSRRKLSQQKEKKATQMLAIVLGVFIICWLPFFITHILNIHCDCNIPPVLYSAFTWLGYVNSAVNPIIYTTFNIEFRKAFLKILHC
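DiscoveRx PathHunter D2 beta-arrestin cells (2,100/well) attached overnight, then compound-stimulated 90 min at 37 C in HBSS/10 mM HEPES/0.1% Tween-20 buffer; beta-galactosidase complementation read by luminescence after 1 h at ambient temperature. Dopamine 57 uM final (EC100) as control.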
PINK1 modulator: A Quantitative High throughput Screen to Identify Chemical Modulators of PINK1 Expression; Potency, µM (doses to about 76.6 µM), for inactives: at the highest dose activation (PINK1 increase), actives largely listed as activators; PINK1 immunofluorescence, high-content cytometry, 24 h; AID 624263, 2012; actives 0.2% (n = 410,000); active = well fitted activation curve with a large enough effect; inconclusive = small, poorly fitted or top-dose-only effect; inactive = flat fitted curve, though single readings scatter; cell line not stated here;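 note: potency is the fitted concentration of half-maximal effect; % of control where 0% means no effect; nearly all actives have a fitted effect of over 65% in size; a mitochondrial uncoupler was the plate control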
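Stable cell line treated 24 h with compounds at 5 concentrations (CCCP controls), then fixed and immunostained for PINK1 plus nuclear and cell stains; PINK1 immunofluorescence quantified by laser-scanning microplate cytometry.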
gsp agonist: qHTS for Agonist of gsp, the Etiologic Mutation Responsible for Fibrous Dysplasia/McCune-Albright Syndrome: qHTS; AID 624287, 2012; actives 0.13% (n = 340,000); Potency, µM (titrated, usually from 76.9 µM), without a hit: at the highest dose activation (cAMP increase), most hits filed as activators; gsp mutant cells, cAMP HTRF, 30 min; control for the full effect not named in the record; active = well fitted activation curve with a large enough effect; inconclusive = small, poorly fitted or top-dose-only effect, or another doubt; inactive = no such curve, though single readings can be large or run the other way; cell line not stated here;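 note: phosphodiesterase inhibitor Ro 20-1724 added with compounds to block cAMP breakdown; potency is the fitted concentration of half-maximal effect; nearly all actives have a fitted effect of over 60% in size; about a fifth of the inactives were tested at one dose only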
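Cells stably selected in G418 were plated at 2000/well, grown 16-24 hr, then given compounds in DMSO with the PDE inhibitor […] (300 uM solution added) for 30 min at 37C; cAMP was read by HTRF.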
gsp antagonist: qHTS for Antagonists of gsp, the Etiologic Mutation Responsible for Fibrous Dysplasia/McCune-Albright Syndrome: qHTS; gsp-mutant cells, cAMP HTRF, 30 min; control for the full effect not named in the record; Potency, µM (titrated, usually from 76.9 µM), without a hit: at the top dose activity change, negative = inhibition, usual class: inhibitors; actives 0.4% (n = 340,000); active = falling curve of any shape with a large fitted effect; inconclusive = falling curve, mostly with a smaller effect; inactive = flat or rising curve; cell line not stated here;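 note: intracellular cAMP measured with PDE inhibitor Ro 20-1724 present during compound exposure; potency is the fitted concentration of half-maximal effect; % is set by controls: 0 for no effect and ±100 for the full control effect; nearly all actives have a fitted effect of over 65% in size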
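Cells, 2000/well, grown 16–24 h in DMEM 10% FBS with 0.5 mg/ml G418, then compounds plus […] (300 uM addition stock), 30 min at 37C. cAMP read by HTRF (cAMP-d2 and anti-cAMP antibody-K in lysis buffer) after 30 min RT.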
Sfp PPTase inh: qHTS Assay for Inhibitors of Bacillus subtilis Sfp phosphopantetheinyl transferase (PPTase); Biochemical Sfp PPTase activity, qHTS; actives 3.5% (n = 310,000); AID 1490, 2009; Potency, µM, without a hit: max response, negative = inhibition, actives largely listed as inhibitors; active = well fitted inhibition curve with a large enough effect; inconclusive = small, poorly fitted or top-dose-only effect, or another doubt; inactive = no such curve, though single readings can be large or run the other way;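 note: the enzyme is Sfp with the accession as filed and its product quenches rhodamine fluorescence; potency is the fitted concentration of half-maximal effect; 0% = enzyme reaction without inhibitor and -100% = no enzyme wells; top concentration of the series not given in the record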
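Sfp 15 nM + cpd, 15 min RT; start w/ rhodamine-CoA 5 uM, BHQ-2-YbbR 12.5 uM (final); 50 mM Hepes pH 7.6, 10 mM MgCl2, 0.01% NP-40, 0.01% BSA; read 525/598 nm at 0 and 30 min.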
Menin-MLL FL inh: qHTS Assay for Inhibitors Targeting the Menin-MLL Interaction in MLL Related Leukemias: Competition With Fluorescein Labeled MLL-derived Peptide; Fluorescence polarization, fluorescein-MLL peptide displacement from menin; FP activity change, % at 61.4 µM; 290,000 tested, under 10 active; AID 1766, 2009; inconclusive = falling polarisation curve, or a change in total fluorescence; inactive = total fluorescence flat and polarisation flat or rising; no compound was filed as active; the % refers to the polarisation; negative = inhibition;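 note: % of control where 0% means no effect; inhibitors lower the polarisation; unlabelled MLL peptide was the positive control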
* marks the source's active call; other numbers are inactive results; ? = inconclusive; · = no result given; [ ] = remark or other dose.

SMILES	ClpP mod	D2 ag	PINK1 modulator	gsp agonist	gsp antagonist	Sfp PPTase inh	Menin-MLL FL inh
Cc1ccc(C2=NNC(C(O)C(O)C(O)C(O)CO)S2)cc1 (centres undefined)	-18%	0.5	-1.5%	19%	21%	-18%	2.4
c1ccc(OCc2nnc3sc(-c4cccs4)nn23)cc1	-13%	-1.4	1.8%	6%	6%	10µM*	2.9
Nc1nc(SCc2ccccc2)c2ncn(C3CCCO3)c2n1 (centres undefined)	·	2.4	-0.8%	21%	5%	·	·
CCOc1cc(Br)c(/C=C2/C(=O)N(C)C(=S)N2CC(=O)OC)cc1OC	·	-0.9	5.1%	9%[15.4 µM]	-14%	22%	?
Cc1cc(C)nc(NC(=O)CSc2nnnn2-c2ccccc2)n1	1.1%	-0.6	-1.0%	0%	9%	11%	0.9
S=c1nc(C2CCCCC2)[nH]c2ccccc12	·	-1.2	3.5%	?	-3%	24%	2.4
COc1ccc(C(OC(=O)c2c(C)noc2C)C(=O)NC2CCCC2)cc1 (centres undefined)	-1.4%	-1.0	2.0%	-58%[inhibitor]	5%	8%	8.5
CCO[C@@H]1OC(C(=O)N2CCN(Cc3ccc4c(c3)OCO4)CC2)=C[C@H](c2ccc3c(c2)OCO3)[C@H]1CCCO	-2.4%	-5.4	-0.1%	·	-14%	1%	-3.9
CN1CCN([C@@H]2CS(=O)(=O)N[C@H]2COCc2ccccc2)CC1	-1.4%	-4.4	-1.1%	·	·	·	·
NC(=O)C1=C[C@H](c2csc3ccccc23)C[C@H](OCc2ccc(CO)cc2)O1	0.7%	-4.8	0.4%	10%	-21%	4%	-0.2
CC(=O)C(=Nc1ccccc1Cl)NNc1ccc(Cl)cc1	-0.8%	?	5.0%	6%[15.4 µM]	-7%	-15%	-3.4
COc1ccc(Cl)cc1N(C(C)C(=O)O)S(C)(=O)=O (centres undefined)	·	3.5	-2.6%	?	12%	3%	-2.4
CC(=O)c1cccc(NC(=O)N2CCCC2C(=O)NC2CCCC2)c1 (centres undefined)	·	-2.5	1.0%	0%[15.4 µM]	12%	16%	·
O=C(CN1CCCC1)NCC12CC3CC(CC(C3)C1)C2	0.9%	-5.3	·	-34%	7%	1%	-0.9
CC(=O)Nc1cccc(C(=O)OC(C(=O)c2ccc(C)c(C)c2)c2ccccc2)c1 (centres undefined)	0.9%	-4.2	1.8%	?	?	17%	1.3
CC(=O)Nc1ccc(-c2cn3ccsc3n2)cc1	0.2%	0.0	0.2%	11%	-3%	11%	0.8
Cc1ccc(C(=O)NC(=S)N2CCN(c3cc(C)ccc3C)CC2)cc1	-6.8%	-4.0	16%	1%	-4%	2%	·
COc1ccccc1Cn1c(C)c(C(=O)NCCC#N)sc1=O	-3.1%	-5.0	3.2%	·	·	·	·
Cc1nc2cc(CC(=O)O)ccc2o1	0.5%	1.5	-1.9%	5%	9%	12%	-0.1
CC1CCc2c(C(=O)NCCCN3CCOCC3)csc2C1 (centres undefined)	0.2%	-1.0	-1.9%[38.3 µM]	-2%	2%	9%	-2.2
Cc1cccc2cc(C3CC(c4cccs4)=NN3C(=O)CCC(=O)O)c(Cl)nc12 (centres undefined)	2.9%	-1.3	1.2%	0%[15.4 µM]	-6%	1%	-0.2
O=C(NNc1c(F)c(F)cc(F)c1F)c1ccco1	1.8%	-2.2	-1.1%	-23%	5%	·	·
Cc1c(C(=O)Nc2ccc(OCc3ccccc3)cc2)cccc1[N+](=O)[O-]	1.0%	0.2	23%[38.3 µM]	?	8%	-22%	6.2
Oc1ccc(-c2csc(-c3cccnc3)n2)c(O)c1	·	-0.6	-1.9%	19%[15.4 µM]	6%	1%	-0.1
CC(C)Cn1cnc2c1c(=O)n(CC(=O)O)c(=O)n2Cc1ccccc1	·	-2.7	2.9%	19%[15.4 µM]	1%	8%	-0.9
Cc1ccc(/C=C/S(=O)(=O)NCCC(=O)NCc2ccc(F)cc2)cc1	-0.1%	-0.6	1.9%	-12%	-5%	·	·
Cc1cccn2cc(-c3ccc(S(=O)(=O)N4CCCCC4)cc3)nc12	·	14	1.0%	10%	?	6%	-1.7
CCC(C)NC(=O)Cn1cnc2sc(C)c(S(=O)(=O)N3CCCCC3)c2c1=O (centres undefined)	0.8%	-8.8	6.5%	-5%[15.4 µM]	13%	26%	0.3
CCN(CC)CC#CC(C)OCOCC#CCOC (centres undefined)	2.1%	-1.9	3.9%[38.3 µM]	-18%	-5%	23%	-0.4
COc1ccc(CC(=O)NCc2ccccc2)cc1	0.0%	-0.6	2.6%	-4%	-3%	11%	-1.1

A second format for 4 compounds above.
Values run as follows: ClpP mod | D2 ag | PINK1 modulator | gsp agonist | gsp antagonist | Sfp PPTase inh | Menin-MLL FL inh
> Cc1c(C(=O)Nc2ccc(OCc3ccccc3)cc2)cccc1[N+](=O)[O-]
→ 1.0% | 0.2 | 23%[38.3 µM] | ? | 8% | -22% | 6.2
> Oc1ccc(-c2csc(-c3cccnc3)n2)c(O)c1
→ · | -0.6 | -1.9% | 19%[15.4 µM] | 6% | 1% | -0.1
> CC(C)Cn1cnc2c1c(=O)n(CC(=O)O)c(=O)n2Cc1ccccc1
→ · | -2.7 | 2.9% | 19%[15.4 µM] | 1% | 8% | -0.9
> Cc1ccc(/C=C/S(=O)(=O)NCCC(=O)NCc2ccc(F)cc2)cc1
→ -0.1% | -0.6 | 1.9% | -12% | -5% | · | ·

(list continues)
SMILES	ClpP mod	D2 ag	PINK1 modulator	gsp agonist	gsp antagonist	Sfp PPTase inh	Menin-MLL FL inh
CC(=O)NCc1nc2ccccc2n1C(C)C	2.0%	1.5	-1.1%	?	7%	10%	2.1
Cc1cc(N2CCN(c3nc(-c4ccccc4)cs3)CC2)c2ccccc2n1	-0.8%	-3.3	2.0%	7%[15.4 µM]	0%	-7%	-3.0
FC(F)Sc1ccc(NC(=S)NC2CCCC2)cc1	·	-0.2	?	5%[15.4 µM]	4%	12%	0.3
COc1ccc(NC(=S)N(CCc2ccncc2)C(C)C)cc1Cl	-0.5%	-3.2	1.3%	9%	·	·	·
Cc1nc(N(C)C)ncc1C(=O)O	-16%	-0.6	-0.1%	?	0%	-2%	3.6
Cc1nc2scc(-c3ccc(C(C)(C)C)cc3)c2c(=O)n1N	·	9.3	8.4%	39%	?	13%	-9.3
CN1CCN(S(=O)(=O)c2ccc(Sc3nnnn3-c3ccccc3)c([N+](=O)[O-])c2)CC1	1.0%	1.7	-1.3%	-26%	19%	-5%	-2.1
O=c1[nH]c(-c2ccncc2)nc2ccccc12	-12%	-2.5	-2.0%	15%	9%	14µM*	1.2
CNC(=O)N(O)C1N(NC(=O)Nc2cccc3ccccc23)C(=S)SC1(C)C (centres undefined)	-6.5%	-0.7	1.0%	-27%	-30%	-4%	3.6
C/C(CC(=O)Nc1ccccc1)=N\NC(=O)COc1ccc(C)cc1Br	0.2%	-3.8	3.6%	1%	2%	14%	-2.1
O=[N+]([O-])c1ccc(-c2cnc3ccccc3n2)cc1	-0.4%	-1.2	0.8%	5%[15.4 µM]	0%	10%	3.9
CCOc1ccc(C2C(C#N)=C(N)Oc3cc(C)oc(=O)c32)cc1 (centres undefined)	·	-4.3	1.1%	5%[15.4 µM]	3%	16%	-1.8
Clc1cccc(Cc2c(C3CCCCC3)nc3ccc(Cl)cn23)c1	?	-1.0	13%	·	·	·	·
CCc1ccc(NC(=O)Nc2cc(C(=O)O)ccc2N2CC3CC(C2)c2cccc(=O)n2C3)cc1 (centres undefined)	-0.4%	2.6	2.9%	-7%	-19%	11%	1.7
N#Cc1ccc(Oc2ccc(S(=O)(=O)N3CCOCC3)cn2)cc1	0.6%	-4.5	2.3%	-1%	14%	·	·
COc1ccc(Nc2nc(N)nc(CN(C)C3CCCCC3)n2)cc1	-0.8%	-1.4	-1.1%	3%	6%	2%	0.0
CCCC(C(=O)OCC)P(=O)(c1ccccc1)c1ccccc1 (centres undefined)	0.0%	-0.5	4.3%[38.3 µM]	10%	14%	7%	4.1
CCn1nc(C)c(CNC(=O)c2cc(COc3ccc(F)cc3Cl)on2)c1C	0.5%	-0.9	3.0%	18%	-10%	-19%	1.0
CCn1cc([N+](=O)[O-])c(C(=O)N2CCCC2)n1	-0.1%	-1.1	5.0%[38.3 µM]	-4%	-7%	9%	3.8
Cn1cnc(S(=O)(=O)Nc2cc(C(F)(F)F)ccc2N2CCOCC2)c1	·	-11	1.7%	40%	15%	5%	6.7
CN(Cc1cnn(C)c1)Cc1nc(Cc2ccccc2Cl)no1	·	1.7	0.9%	26%	5%	22%	-4.8
COc1ccccc1NCCC(=O)OCC(=O)Nc1ccc(Cl)cn1	-2.6%	1.1	-0.6%	2%	-5%	-7%	-2.7
O=C(CC1CC1)Nc1ccc2c(c1)[C@H]1C[C@H](CC(=O)N3CCc4ccccc4C3)O[C@@H](CO)[C@H]1O2	-1.7%	-1.7	2.9%	-66%[inhibitor]	·	·	·
CN1CCN(NS(=O)(=O)c2cccs2)CC1	-0.5%	-0.9	2.2%	11%	17%	1%	-1.5
COC(=O)c1c(C)[nH]c(C(=O)/C=C/c2ccccc2F)c1C	·	-3.9	1.5%	-3%[15.4 µM]	-2%	17%	-2.0
CC1CCN(C(=O)C(=O)Nc2sc3c(c2C(N)=O)CC(C)(C)OC3)CC1	1.7%	-0.7	-1.0%	?	-6%	20%	-4.0

Compound activity deposited in PubChem BioAssay by National Center for Advancing Translational Sciences (NCATS).
